Screens (PubChem BioAssay)
miR-21 reporter = miR-21 reporter, rising signal; HeLa miR-21 FLuc reporter, luciferase, 48 h; Potency, µM (doses to about 38.3 µM), for inactives: top-dose reporter change, positive = more light; 340,000 tested, under 10 active; AID 2288; active = well fitted rising curve with a large enough effect; inconclusive = small, poorly fitted or top-dose-only effect; inactive = no such curve, though single readings can be large or run the other way;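 also: % of control where 0% means no effect; miR-21 action dims this reporter so a rising signal means less miR-21 action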
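HeLa cells endogenously expressing miR-21, stably carrying CMV-driven firefly luciferase with a downstream miR-21 binding site, 2000 cells/well. Titrations up to approximately 40 uM, 48 hours; luciferase luminescence read.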
GLA inh pH 4.5 = inhibitors of human alpha-galactosidase A at pH 4.5 | P06280 | purified enzyme, 4-MU-alpha-Gal fluorescence, pH 4.5 | activity change, negative = inhibition, % at 105 µM | 230,000 tested, under 10 active | AID 1467; inconclusive = small, poorly fitted or top-dose-only inhibition, or a rising curve; inactive = flat fitted curve, though single readings scatter; no compound was filed as active;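 also: 0% = full activity with enzyme and -100% = basal without enzyme; dose as in the result columns while the protocol names 77 µM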
Target sequence (P06280 whole entry, looked up): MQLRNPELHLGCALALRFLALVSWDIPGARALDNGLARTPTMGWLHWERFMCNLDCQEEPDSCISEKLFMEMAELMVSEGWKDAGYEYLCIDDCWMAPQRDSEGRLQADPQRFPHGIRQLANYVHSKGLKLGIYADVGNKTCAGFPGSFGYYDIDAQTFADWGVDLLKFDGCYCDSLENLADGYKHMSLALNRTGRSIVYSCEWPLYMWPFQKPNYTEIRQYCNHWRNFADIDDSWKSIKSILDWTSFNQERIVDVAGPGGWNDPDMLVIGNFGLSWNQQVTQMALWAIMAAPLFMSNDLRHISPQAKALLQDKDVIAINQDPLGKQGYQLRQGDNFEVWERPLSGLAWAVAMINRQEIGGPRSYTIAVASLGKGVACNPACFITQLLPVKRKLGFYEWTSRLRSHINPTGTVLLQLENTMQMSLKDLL
Rango dissoc inh = inhibition of RanGTP-driven Rango-importin beta dissociation | O95149+P62826 | Biochemical FRET Rango-importin beta, RanGTP-induced dissociation | Potency, µM (series often up to 46.1 µM), for the others: at the highest dose activity change, negative = inhibition | actives 0.071% (n = 340,000); active means falling FRET ratio curve, often poorly fitted, with flat reads before Ran was added; inconclusive means other falling curves, or compound fluorescence or quenching; inactive means flat or rising ratio curve;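 also: potency is read from the fitted curve at half-maximal effect; % of control where 0% means no effect; nearly all actives have a fitted effect of over 45% in size; -100% = wells without RanGTP and RCC1; the record marks most hits as doubtful in a second field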
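Compounds sat 5 min at room temperature with 0.1 uM Rango biosensor plus 0.25 uM importin beta, then FRET pre-read. RanGTP-RCC1 (0.6 uM Ran, 2mM GTP, 0.2 uM RCC1) added for 45 min, and the CFP/YFP post-read measured blocked complex dissociation.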
Rango-impB inh = prevents formation of the Rango-importin beta complex | Q14974 | Rango CFP/YFP FRET sensor + importin beta, 45 min | Potency, µM (series often up to 92.2 µM), for the others: top-dose inhibition of complex formation | actives 0.031% (n = 340,000); active = rising FRET ratio curve, often small or poorly fitted; inconclusive = mostly compound fluorescence or quenching in the first reads; inactive = flat curves in all reads;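 also: potency is read from the fitted curve at half-maximal effect; 0% = DMSO wells and 100% = buffer wells lacking importin beta; nearly all actives have a fitted effect of over 15% in size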
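Inhibition scored from the CFP 486 nm/YFP 530 nm FRET ratio 45 min after adding 0.125 microM importin beta to 50 nM Rango biosensor preincubated 5 min with compound (room temperature, PBS with DTT, Tween-20, BSA). No-importin wells as positive control.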
An asterisk follows results filed as active; ? = inconclusive; . = not tested or not shown.

SMILES	miR-21 reporter	GLA inh pH 4.5	Rango dissoc inh	Rango-impB inh
CCCn1c(N)c(CC)c(=O)[nH]c1=O	-3%	14	-16%	5.6%
Cc1cccn2c(CN3CCSCC3)c(C(=O)N3CCOCC3)nc12	-3%	3	20%	-2.6%
COc1cccc(CN2CCSCC2)c1	0%	0	12%	-2.7%
CC(=O)N1CCc2cc(S(=O)(=O)CCC(=O)Nc3cc(C)cc(C)c3)ccc21	0%	.	0%	-3.9%
Cn1cc(CN2CCN(CCc3ccccc3)C(CCO)C2)cn1 (stereo not given)	0%	5	9%	-4.6%
C=CCn1c(SCC(=O)Nc2ccccc2F)nnc1C(C)NC(=O)c1ccccc1F (stereo not given)	0%	.	8%	2.4%
CC(C)(C)OC(=O)N1CCC(C(=O)Nc2ccc(C(=O)N3CCCC3)cc2)CC1	.	.	-6%	0.2%
O=C(Nc1nc2ccc(S(=O)(=O)N3CCCCC3)cc2s1)c1cccnc1	-3%	6	-12%	1.6%
CS(=O)(=O)N(Cc1ccccc1)c1ccc(C(=O)N2CCc3ccccc3C2)cc1	1%	2	-12%	-0.1%
CCOC(=O)c1c(N)sc(C(=O)N(C)C)c1C	-3%	2	-4%	-2.6%
Cc1cc(SCc2ccc(C(F)(F)F)cc2)nc(=O)[nH]1	-17%	.	1%	-1.4%
CCOC(=O)C1(CCOC)CCN(Cc2ccc(C3CCCCO3)s2)CC1 (stereo not given)	-3%	-3	11%	0.0%
CCOC(=O)c1c(NC(=O)COC(=O)Cn2c(C)nc3ccccc32)sc2c1CCCC2	-12%	-7	-7%	-2.0%
CCOc1ncccc1C(=O)N1CCCSC1=Nc1ccccc1OC	0%	7	1%	1.5%
O=C(CSc1nnc(CNc2ccc(F)cc2)n1-c1ccccc1)N1CCOCC1	0%	8	0%	-1.8%
CC1CC2C3CCC4=CC(=O)C=CC4(C)[C@@]3(Cl)C(O)CC2(C)C1(O)C(=O)CO (stereo not given in full)	.	.	3%	2.6%
CC(C)NC(=O)/C(=C/c1cn(-c2ccccc2)nc1-c1cccc([N+](=O)[O-])c1)NC(=O)c1ccccc1	3%	-7	-1%	0.5%
COc1ccc(-n2nc(C(=O)NCC(=O)NCCCN3CCOCC3)c3ccccc3c2=O)c(OC)c1	5%	.	-6%	0.2%
C=CCOc1ccc(CNC(C)(C)CO)cc1OC	0%	4	-4%	3.9%
CCOc1ccc(C(=O)c2cc3ccc(O)cc3oc2=O)cc1	-25%	-6	?	?

Gathered by group: the compounds so far with fluorine
SMILES	miR-21 reporter	GLA inh pH 4.5	Rango dissoc inh	Rango-impB inh
C=CCn1c(SCC(=O)Nc2ccccc2F)nnc1C(C)NC(=O)c1ccccc1F (stereo not given)	0%	.	8%	2.4%
Cc1cc(SCc2ccc(C(F)(F)F)cc2)nc(=O)[nH]1	-17%	.	1%	-1.4%
O=C(CSc1nnc(CNc2ccc(F)cc2)n1-c1ccccc1)N1CCOCC1	0%	8	0%	-1.8%

The results go on.
SMILES	miR-21 reporter	GLA inh pH 4.5	Rango dissoc inh	Rango-impB inh
O=C1NCCCN1Cc1ccc(F)cc1	-1%	-1	9%	7.2%
CCC(C)c1ccccc1N1CC(C(=O)Nc2cccc(S(=O)(=O)N3CCOCC3)c2)CC1=O (stereo not given)	5%	.	-5%	-0.8%
CC(C)CC(NS(=O)(=O)c1ccc2[nH]c(=O)c(=O)[nH]c2c1)C(=O)O (stereo not given)	-2%	-2	2%	-0.5%
Cc1cccc(NC(=O)Cc2cccs2)n1	-29%	-5	-12%	-4.6%
CC(C#N)(NC(=O)CN1CCN(S(=O)(=O)c2ccccc2C#N)CC1)C1CC1 (stereo not given)	.	.	1%	-0.9%
Cc1nn(-c2ccccc2)c2nc(=O)n(-c3ccccc3)cc12	-9%	5	-2%	1.8%
COc1cccc(CC(=O)Nc2ccc(N3CCOCC3)c(S(=O)(=O)Nc3ccccc3OC)c2)c1	.	.	-5%	3.2%
N=C(N)SCP(=O)(c1ccccc1)c1ccccc1	13%	-5	1%	3.7%
C=CCn1c(C(C)NC(=O)c2cccc(C)c2)n[nH]c1=S (stereo not given)	-1%	8	11%	-0.3%
COc1ccccc1NS(=O)(=O)c1cc(C(=O)N2CCCCCCC2)ccc1C	.	.	13%	-2.0%
CCCOc1ccc(C(=O)CCCC(=O)c2ccc(OCCC)cc2)cc1	0%	.	-12%	-3.0%
Cc1ccc(OC(C)C(=O)Nc2ccncc2)cc1C (stereo not given)	19%	.	34%	-2.7%
O=C(O)c1cc(Cl)c(Cl)cc1C(=O)Nc1cccc2cccnc12	-8%	3	1%	-0.8%
Cn1c(=O)c(C(=O)NNC(=O)c2ccccc2Br)c(O)c2ccccc21	-4%	.	34%	4.6%
CCOC(=O)N1CCN(c2cc(=O)n(-c3ccc(C)cc3)c(=O)[nH]2)CC1	-2%	-16	1%	5.2%
CCC(C)n1c(SCc2ccc([N+](=O)[O-])cc2)nc2ccsc2c1=O (stereo not given)	-5%	-4	7%	-7.3%
CC(C)(C)c1cc(C2COC(=O)COCCOCC(=O)OCCOCCO2)cc(C(C)(C)C)c1O (stereo not given)	.	.	2%	-0.6%
O=C(CN1C(=O)c2ccccc2C1=O)NCc1ccncc1	-8%	11	18%	-4.6%
Cc1ccc(C(=O)NC(C#N)=C(Cl)Cl)cc1	?	7	-14%	-3.3%
CCN(Cc1nc(-c2ccc(C)cc2)no1)C(=O)c1ccco1	-21%	.	1%	-1.2%

6 compounds out of the list above, ordered by the number in miR-21 reporter, low to high.
SMILES	miR-21 reporter
O=C(CN1C(=O)c2ccccc2C1=O)NCc1ccncc1	-8%
Cn1c(=O)c(C(=O)NNC(=O)c2ccccc2Br)c(O)c2ccccc21	-4%
C=CCn1c(C(C)NC(=O)c2cccc(C)c2)n[nH]c1=S (stereo not given)	-1%
CCCOc1ccc(C(=O)CCCC(=O)c2ccc(OCCC)cc2)cc1	0%
CCC(C)c1ccccc1N1CC(C(=O)Nc2cccc(S(=O)(=O)N3CCOCC3)c2)CC1=O (stereo not given)	5%
N=C(N)SCP(=O)(c1ccccc1)c1ccccc1	13%

(continued)
SMILES	miR-21 reporter	GLA inh pH 4.5	Rango dissoc inh	Rango-impB inh
O=[N+]([O-])c1ccc(C[n+]2cc(-c3ccccc3)n3c2CCCCC3)cc1	0%	3	-9%	2.2%
CCOC(=O)c1ccc(NC(=O)c2c(O)c3ccccc3n(C)c2=O)cc1	-4%	-6	.	.
C#CCOCCOCCOCCNc1nc(N2CCN(C(=O)Cn3cc(CCCN=C(N)N)nn3)CC2)nc(N2CCN(C(=O)Cn3cc(CCCN=C(N)N)nn3)CC2)n1	-10%	-10	.	.
O=C(COC(=O)c1ccccc1O)Nc1ncc(Cl)cc1Cl	3%	7	-11%	?
CN(Cc1ccccc1)C(NC(=O)c1ccco1)C(Cl)(Cl)Cl (stereo not given)	2%	1	0%	0.5%
OCCC1CN(Cc2cn[nH]c2C2CCCCC2)CCN1C1CCCC1 (stereo not given)	-3%	-4	4%	0.9%
O=C(Cc1ccccc1[N+](=O)[O-])Nc1ccc2c(c1)OCO2	-37%	6	10%	0.3%
CC(C)(C)n1nnnc1CN(Cc1ccco1)Cc1cc2cc3c(cc2[nH]c1=O)OCO3	-11%	1	?	?
CCC(=O)Nc1ccc(OCC2CCCO2)cc1 (stereo not given)	-12%	.	8%	-3.0%
COc1ccccc1NC(=O)c1cc(S(=O)(=O)N2CCCC2)cn1C	-2%	.	1%	?
CCOc1ccc(CNC(=O)CN2C(=O)C(c3ccccc3)Oc3cccnc32)cc1 (stereo not given)	-2%	.	-21%	-4.0%
CCOc1ccc(N(CC(=O)NCCC2=CCCCC2)S(=O)(=O)c2ccccc2)cc1	-1%	-17	11%	0.5%
COc1ccc(OC)c(-c2cc(C(=O)Nc3ccc(F)cc3F)no2)c1	-4%	8	11%	-3.0%
CN1CCN(C(=O)c2cc(Cl)ccc2Cl)CC1	1%	0	?	-1.0%
Cc1ccc(C)c2c1sc(=NC(=O)CN1C(=O)CCC1=O)n2C	0%	0	10%	1.1%
COc1ccc(C2/C(=C(/O)c3ccc(C)cc3)C(=O)C(=O)N2C)c(OC)c1 (stereo not given)	-3%	.	-7%	3.5%
O=C1C=CC(=C(c2ccc(O)cc2)c2ccc(O)cc2)C=C1	.	0	8%	-2.5%
O=C(c1ccc2c(c1)OCO2)N(Cc1ccco1)C1(C(=O)NC2CCCCC2)CCCCC1	10%	0	2%	1.4%
CCCC(=O)N1CCN(c2nc(CC(C)C)c3c(c2C#N)CCC3)CC1	7%	-5	-11%	-0.7%
C=CCNC(=O)c1cc2c(C(F)(F)F)nn(C)c2s1	-9%	4	18%	2.4%
CN1CCC(N(C)C(=O)NC2CCCCC2)CC1	-9%	4	-19%	3.4%
COc1ccc2c(c1OC)C(=O)OC2Nc1ccc(S(=O)(=O)N=C(N)N)cc1 (stereo not given)	-6%	7	-4%	0.0%
CNC(=S)SCCOc1ccc(C)cc1	0%	7	1%	-0.5%
O=C(Nc1ccc([N+](=O)[O-])cc1)OCCc1ccccn1	-16%	.	-9%	-0.2%
C=CSc1sc(Cl)c(N(C)C)c1[N+](=O)[O-]	-1%	-7	-9%	1.4%
CCN(CC(=O)Nc1c(F)cccc1F)C(=O)c1ccc(C(=O)c2ccccc2)cc1	.	.	2%	0.7%
COc1ccc(C)cc1NC1=C(Cl)C(=O)N(C2CCCCC2)C1=O	-7%	-4	-4%	4.4%
COc1ccc(N2CCN(C(=O)C34CCC(C)(C(=O)C3)C4(C)C)CC2)cc1 (stereo not given)	-5%	6	-4%	0.9%
CCOC(=O)C1(Cc2ccccc2)CCCN(Cc2cccc(C(C)=O)c2)C1 (stereo not given)	20%	-14	8%	2.8%
Cn1c(N)nc2nc(CCc3ccccc3)c(=O)[nH]c2c1=O	-3%	.	?	?
CCCCn1c(CNC(=O)C(C)(C)C)nc2ccccc21	0%	-2	21%	2.5%
COc1ccc(N2CCN(C(CNC(C)=O)c3ccco3)CC2)cc1 (stereo not given)	4%	6	-4%	1.7%
C[C@@H](C(=O)NC1CCCCC1)N1C(=O)N2CCc3c([nH]c4ccccc34)[C@@]2(C)C1=O	14%	.	-15%	3.5%
COc1ccc(-c2c(C)nn(-c3ccccc3)c2N)cc1	-63%	4	13%	1.3%
Cc1n[nH]c(C)c1S(=O)(=O)N1CCCC(C(=O)N2CCc3ccccc32)C1 (stereo not given)	1%	0	-8%	0.6%
Cc1cccc(CSc2nc(N)c(C#N)c(-c3cccs3)c2C#N)c1	-12%	0	-5%	-0.5%
O=c1[nH]n(-c2ccccc2)c(=O)c(Cl)c1Cl	2%	?	-12%	1.7%
Cc1cccc(NC(=O)CSc2nnc(CNC(=O)c3ccco3)n2C)c1C	.	.	20%	-6.5%
COc1ccccc1N1CCN(S(=O)(=O)c2ccc3nc(-c4ccccc4)[nH]c3c2)CC1	14%	-5	-14%	-3.7%
CCN(CC)S(=O)(=O)c1ccc2[nH]c(=O)c3ccccc3c2c1	-4%	.	12%	0.7%
CN(Cc1ccccc1)C(=O)COC(=O)c1cc([N+](=O)[O-])ccc1N1CCOCC1	.	.	-7%	-0.4%
CCc1nc(SCC(=O)N2CCCCC2)c2c(=O)n(C)c(=O)n(C)c2n1	10%	.	-3%	0.5%
CCC(C)n1c(OC)nc2c1c(=O)n(C)c(=O)n2C (stereo not given)	-4%	-3	2%	-0.5%
O=C(N=Nc1c(O)[nH]c2ccc([N+](=O)[O-])cc12)c1ccccc1[N+](=O)[O-]	-21%	-9	-4%	-2.7%
NS(=O)(=O)c1ccc(CCNC(=O)CSc2nc3ccsc3c(=O)n2C2CC2)cc1	-6%	-12	1%	-4.2%
O=C(Nc1ncccc1Cl)C1COc2ccccc2O1 (stereo not given)	-72%	0	2%	-4.6%
Cc1c(OCC(=O)N[C@@H](Cc2ccccc2)C(=O)O)ccc2c3c(c(=O)oc12)CCC3	1%	.	-11%	0.9%
C#CCOCCOCCOCCNc1nc(N2CCN(C(=O)[C@H]([C@@H](C)CC)n3cc([C@@H](N)Cc4ccc(O)cc4)nn3)CC2)nc(N2CCN(C(=O)[C@H](CCCCN)n3cc([C@@H](N)CO)nn3)CC2)n1	-1%	0	.	.
CC1(C)CC(NC(=O)c2ccncc2)CC(C)(C)N1O	0%	2	-8%	1.7%
CCCCCc1ccc(-c2cn(CC3CCCCC3)nn2)cc1	0%	.	1%	2.0%

An excerpt, so the mix of outcomes need not match the whole.
